High-throughput results: PubChem BioAssay, National Center for Advancing Translational Sciences (NCATS)
GLA inh pH 4.5 – qHTS Assay for Inhibitors of Human alpha-Galactosidase at pH 4.5 | 230,000 tested, under 10 active | purified enzyme, 4-MU-alpha-Gal fluorescence, pH 4.5 | activity change, negative = inhibition, % at 105 µM | Alpha-galactosidase A (Homo sapiens), P06280 | AID 1467, 2008; inconclusive = small, poorly fitted or top-dose-only inhibition, or a rising curve; inactive = flat fitted curve, though single readings scatter; no compound was filed as active;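 further: 0% = full activity with enzyme and -100% = basal without enzyme; dose as in the result columns while the protocol names 77 µM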
Target sequence (P06280 whole entry, looked up): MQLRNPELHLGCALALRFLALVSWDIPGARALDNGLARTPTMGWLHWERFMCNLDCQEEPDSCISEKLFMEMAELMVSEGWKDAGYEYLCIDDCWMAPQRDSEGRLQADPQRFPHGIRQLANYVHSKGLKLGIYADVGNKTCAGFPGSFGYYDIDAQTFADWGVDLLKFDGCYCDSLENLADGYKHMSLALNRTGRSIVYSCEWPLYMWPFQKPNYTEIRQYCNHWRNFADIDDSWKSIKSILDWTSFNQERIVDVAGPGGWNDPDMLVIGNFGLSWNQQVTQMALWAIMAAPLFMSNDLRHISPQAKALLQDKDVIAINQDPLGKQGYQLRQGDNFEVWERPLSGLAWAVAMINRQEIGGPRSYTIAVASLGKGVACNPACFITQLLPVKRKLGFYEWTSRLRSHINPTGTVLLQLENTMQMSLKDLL
Starred values were filed as active, the others as inactive; ? = inconclusive; & = joins results of further samples.

SMILES	GLA inh pH 4.5
O[C@@](CCN1CCCCC1)(c1ccccc1)[C@@H]1C[C@H]2C=C[C@@H]1C2	1
Cc1cccc(CNc2cc(-c3cccc(NS(C)(=O)=O)c3)ncn2)c1	-2
COC(=O)C1=C(C(=O)OC)[C@@H]2N(Cc3ccccc3)c3ccccc3[C@@]23C[C@@H](C(=O)OC)N(C(=O)c2ccco2)C3=N1	3
COc1ccccc1N1CCN(CCn2c(=O)[nH]c3c([nH]c4ccccc43)c2=O)CC1	13
C[N+]1(C)CCc2cc3c(cc2[C@@H]1[C@@H]1C(=O)Oc2c1ccc1c2OCO1)OCO3	7&-4
CCC1=C2CC[C@H]3C(=O)NC(=O)[C@H]3[C@H]2[C@@]2(Cc3ccccc3)C(=NCc3ccccc3)OC(=O)N2C1=O	2
CN(C)Cc1ccccc1-c1nc(NCc2ccccc2)c2ccccc2n1	1
COc1ccc2c(c1)C(=O)[C@H](OC(=O)NS(=O)(=O)c1ccc(C)cc1)[C@@H](c1ccc(OC)c(Br)c1)O2	-6
NCCCNCCSP(=O)(O)O	-7
COC[C@@H](O)[C@@H](OC)[C@H](OC)[C@H](Cc1c(OC)cc(OC)cc1OC)OC	-7
Cc1nc(NCc2ccccc2)c2nc(-c3ccccc3)n(CCN3CCOCC3)c2n1	-11
COC(=O)c1ccc(C(NC(=O)OCc2ccccc2)/C(=C/[C@@H](C)C(=O)N(C)C)c2cccnc2)cc1 (stereo not given in full)	-13
COC1CC(O[C@H]2/C(C)=C/CC3CC(C[C@]4(CCC(C)C(C5CCCCC5)O4)O3)OC(=O)[C@H]3C=C(C)/C(=N/O)C4OC/C(=C\C=C\[C@@H]2C)[C@@]43O)OC(C)C1O (stereo not given in full)	-4
NC(C(=O)O)[C@@H]1CC(Cl)=NO1 (stereo not given in full)	21
CC(C)C[C@@H](CC(=O)N[C@@H](CCC(=O)O)CC(=O)O)NC(=O)[C@@H]1CNCC[C@H]1NC(=O)C[C@@H](NC(=O)C[C@H](CO)NC(=O)[C@@H]1CNCC[C@H]1N)C(C)C	0
Cc1nc(NCCO)c2nc(-c3ccccc3)n(CC3CCN(C)CC3)c2n1	-2
CC(=O)OCC1OC(n2c(Br)nc3c(=O)[nH]c(N)nc32)C(OC(C)=O)C1OC(C)=O (stereo not given)	10
COc1ccccc1-c1ccc2ncnc(N(C)C)c2c1	4
Oc1cc(O)c2c(c1)OC(c1cc(O)c(O)c(O)c1)C(O)C2 (stereo not given)	6
COC(=O)C1=C(C(=O)OC)[C@@H]2N(C)c3ccc(OC)cc3[C@@]23C[C@@H](C(=O)OC)N(S(=O)(=O)c2c(C)noc2C)C3=N1	7
CCCCNc1nc(C)nc2c1nc(-c1ccccc1)n2CC1CCCN1CC (stereo not given)	-7
CC1CCC(C(C)C)C(O)C1 (stereo not given)	-3
C[C@@](N)(C(=O)O)c1ccc(S(=O)(=O)O)cc1	-27
CC[C@@H](C)[C@H]1O[C@]2(CC[C@@H]1C)C[C@@H]1C[C@H](C/C=C(/C)[C@H](O[C@@H]3C[C@H](OC)[C@H](O[C@@H]4C[C@H](OC)[C@@H](O)[C@H](C)O4)[C@H](C)O3)[C@@H](C)/C=C\C=C3CO[C@@H]4[C@H](O)C(C)=C[C@@H](C(=O)O1)[C@]34O)O2 (tested in a mixture with another compound)	-14
C[N+]1(C)CC[C@@H](OC(=O)[C@@](O)(c2ccccc2)C2CCCC2)C1	8
C#CCCCCCCCCCCCC(O)CC(O)CO (stereo not given)	-5
C=C(CC1([C@@H](NP(=O)(c2ccccc2)c2ccccc2)[C@H]2C[C@@H]2CCCC)CC1)c1cccc(OC)c1	-5
O=C(/C=C/c1ccccc1)c1ccc(O)cc1	-2
CCC1=C(OC(=O)N(CC)CC)N2C(=O)OC(=NCCOC)[C@]2(C)[C@H]2C1=CC[C@H]1C(=O)NC(=O)[C@H]12	2
C=C[C@H]1CCC=C2C(=O)CCC[C@@H]21	-7
COC(=O)[C@@]1(Cc2ccc(F)cc2)[C@H]2c3cc(C(=O)N(C)C)n(Cc4cc(F)c(F)c(F)c4)c3C[C@H]2CN1C(=O)c1ccccc1	7
COC(=O)C(C(C)=O)C(NC(=O)OC(C)(C)C)c1ccccc1 (stereo not given)	-5
Nc1nc(-c2ccc(Cl)c(Cl)c2)c(-c2ccncc2)s1	-2
OC1C2COC(O2)[C@H](O)C1O (stereo not given in full)	6
N[C@@H](Cc1ccc(O)cc1)C(=O)O	-7
COc1ccccc1-c1nccc(NCc2cccc(C)c2)n1	-1
COc1cccc([C@@H]2Oc3ccc(OC)cc3C[C@H]2OC(=O)Nc2ccc(OC(F)F)cc2)c1	-10
C=C1C2CC[C@]3(CCC4[C@@]5(C)CCC[C@@]4(CN(CCO)C5)[C@@H]3C2)[C@@H]1O (stereo not given in full)	-4
CNc1ncnc2c1ncn2[C@H]1C[C@H](OP(=O)(O)O)[C@@H](COP(=O)(O)O)O1	-2
Nc1nc(NCCc2ccc(O)cc2)nc2nc(-c3ccco3)nn12	0
CCOC(=O)[C@H](CCc1ccccc1)N[C@@H](C)C(=O)N1[C@H](C(=O)O)C[C@H]2CCC[C@@H]21	4
Cc1cnc(CNc2ncnc3ccc(-c4ccccc4CN(C)C)cc23)cn1	-6
COC(=O)[C@@]1(Cc2ccccc2)[C@H]2c3cc(C(=O)N4CCCC4)n(Cc4ccc(S(C)(=O)=O)cc4)c3C[C@H]2CN1C(=O)c1ccccc1	-13
CCC/C=C(\CCC)C(NC(=O)Oc1ccc(F)cc1)c1ccc(C(=O)OC)cc1 (stereo not given)	5
NCc1ccccc1CC(=O)N[C@@H]1C(=O)N2C(C(=O)O)=C(CSc3nnnn3CC(=O)O)CS[C@@H]12	-14

Part of the list above, with values ahead of the structure.
GLA inh pH 4.5 | structure
-5 | COC(=O)C(C(C)=O)C(NC(=O)OC(C)(C)C)c1ccccc1 (stereo not given)
-2 | Nc1nc(-c2ccc(Cl)c(Cl)c2)c(-c2ccncc2)s1
6 | OC1C2COC(O2)[C@H](O)C1O (stereo not given in full)
-7 | N[C@@H](Cc1ccc(O)cc1)C(=O)O
-1 | COc1ccccc1-c1nccc(NCc2cccc(C)c2)n1
-10 | COc1cccc([C@@H]2Oc3ccc(OC)cc3C[C@H]2OC(=O)Nc2ccc(OC(F)F)cc2)c1
-4 | C=C1C2CC[C@]3(CCC4[C@@]5(C)CCC[C@@]4(CN(CCO)C5)[C@@H]3C2)[C@@H]1O (stereo not given in full)
-2 | CNc1ncnc2c1ncn2[C@H]1C[C@H](OP(=O)(O)O)[C@@H](COP(=O)(O)O)O1
0 | Nc1nc(NCCc2ccc(O)cc2)nc2nc(-c3ccco3)nn12
4 | CCOC(=O)[C@H](CCc1ccccc1)N[C@@H](C)C(=O)N1[C@H](C(=O)O)C[C@H]2CCC[C@@H]21
-6 | Cc1cnc(CNc2ncnc3ccc(-c4ccccc4CN(C)C)cc23)cn1
-13 | COC(=O)[C@@]1(Cc2ccccc2)[C@H]2c3cc(C(=O)N4CCCC4)n(Cc4ccc(S(C)(=O)=O)cc4)c3C[C@H]2CN1C(=O)c1ccccc1
5 | CCC/C=C(\CCC)C(NC(=O)Oc1ccc(F)cc1)c1ccc(C(=O)OC)cc1 (stereo not given)
-14 | NCc1ccccc1CC(=O)N[C@@H]1C(=O)N2C(C(=O)O)=C(CSc3nnnn3CC(=O)O)CS[C@@H]12

More compounds
SMILES	GLA inh pH 4.5
CC[N+](CC)(CCNC(=O)C(=O)NCC[N+](CC)(CC)Cc1ccccc1Cl)Cc1ccccc1Cl	0
COC/C=C/C1=CC2=CC(=O)C(C)(OC(=O)c3cnc4ccccc4n3)C(=O)C2=CN1C1CCCC1 (stereo not given)	7
CCN(CC)CCCCn1c(-c2ccccc2)nc2c(Nc3ccccc3)nc(C)nc21	-6
CS(=O)(=O)c1ccc(-c2cc(Br)sc2-c2ccc(F)cc2)cc1	-3
NCC1O[C@H](O[C@@H]2C(O)[C@H](O[C@H]3OC(CO)C(O)C(N)C3O)[C@@H](N)C[C@H]2N)[C@@H](N)CC1O (stereo not given in full)	24
C=C(C)C1COc2cc3oc(=O)ccc3cc2O1 (stereo not given)	10
CC1CC2C3CCC4=CC(=O)C=C[C@@]4(C)[C@]3(F)C(O)C[C@]2(C)[C@]1(O)C(=O)CO (stereo not given in full)	6&-18
N[C@H](C(=O)O)c1cc(O)cc(O)c1	-3&-7&-1
C=CCN1c2ccccc2[C@]23C[C@@H](C(=O)OC)N(S(=O)(=O)c4ccc(Br)cc4)C2=NC(C(=O)OC)=C(C(=O)OC)[C@H]13	7
CC[C@H]1C2=C3C(CC[C@H]4C(OCc5ccc(F)cc5C(F)(F)F)OC[C@](C)([C@@H]34)N(C(=O)OC(C)(C)C)C2)C(COC(C)=O)C1COC(C)=O (stereo not given in full)	-10
COC(=O)N/N=C/C1=C[N+](=O)c2ccccc2[N+]1=O	7
O=S(=O)(NCCCCCCc1ccccc1)c1cccc2c(Cl)cccc12	-7
C[C@@H]1C[C@](C)(C(=O)c2ccc3ccccc3c2)C=C1c1ccc2ccccc2c1	-8
CC/C=C\C/C=C\C/C=C\C/C=C\C/C=C\CCCC(=O)O	-2
C=CC(C)(O)CC1[C@@]2(C)CCCC(C)(C)C2CC[C@]1(C)O (stereo not given in full)	4
COC(=O)[C@@H](NC(=O)N1CCc2nc(COc3ccccc3)c3c(c2C1)CO[C@@H](C)C3)C(C)C	-10
CCc1c2c(nc3c(C(C)C)cccc13)-c1cccc(=O)n1C2	?
COc1cc(OC)c2c(c1Cl)OC1(C2=O)C(O)=CC(=O)CC1C (stereo not given)	3
CN1C(=O)C(Cc2c[nH]c3ccccc23)NC1=S (stereo not given)	-6
C=CC(C1=CC(=O)C(OC)=C(OC)C1=O)c1ccccc1 (stereo not given)	-7
C=C1c2cccc(C(F)(F)F)c2O[C@H](C(=O)OCC)[C@@H]1CCCCCC	-2
CCCCCCCC/C=C\CCCCCCCC(=O)NCCCC(=O)O	-8
COc1ccc(CNc2nc(-c3ccoc3)nc3ccccc23)c(OC)c1	-7
CCc1c2c(nc3cccc(OC)c13)OC(CC)C2 (stereo not given)	3
CCC1=C2CC[C@H]3C(=O)NC(=O)[C@H]3[C@H]2[C@@]2(C)C(=NCC3CC3)OC(=O)N2C1=O	-4
COC(=O)[C@@]1(Cc2ccccc2)[C@H]2c3cc(C(=O)N4CCCC4)n(Cc4cc(F)cc5c4OCOC5)c3C[C@H]2CN1C(=O)c1ccccc1	-9
CCCn1c(=O)[nH]c2nc(-c3ccc(S(=O)(=O)O)cc3)[nH]c2c1=O	?
CN(C)C(=O)c1ccc(-c2nc(NCc3cccnc3)c3ccccc3n2)cc1	2
CCCCCCCCCCCCC/C=C\[C@@H](O)[C@H](CO)NC(C)=O	-28
COc1cc(OC)c2c(=O)c(-c3ccc4c(c3)OCO4)coc2c1	-7

As entered above.
GLA inh pH 4.5 with COc1ccc(CNc2nc(-c3ccoc3)nc3ccccc23)c(OC)c1 reads -7
GLA inh pH 4.5 with C=CC(C1=CC(=O)C(OC)=C(OC)C1=O)c1ccccc1 (stereo not given) reads -7

Continued.
SMILES	GLA inh pH 4.5
COC(=O)[C@H](COC(C)(C)C)NC(=O)O[C@@H]1C(=O)c2ccc(OC)cc2O[C@H]1c1ccc2c(c1)OCO2	-2
CCCCC[C@H](O)C/C=C1/C(=O)C=C[C@@H]1C/C=C\CCCC(=O)O	-3
COc1ccc2cnoc(=O)c2c1OC	6
O=C1O[C@@H]([C@@H](O)CO)[C@@H](O)[C@H]1O	4
COC(=O)c1ccc(C(NC(=O)OCc2ccccc2)/C(I)=C/[C@@H](C)C(=O)NCc2ccncc2)cc1 (stereo not given in full)	-23
CN(C)c1ccc(-c2cc(-n3ccnc3)ncn2)cc1	-1
COC(C)(C)CCCC(C)C/C=C/C(C)=C/C(=O)O (stereo not given)	3
COC(=O)[C@H](COC(C)(C)C)NC(=O)O[C@@H]1C(=O)c2cc(OC)ccc2O[C@H]1c1ccc(OC)c(Br)c1	-8
[C-]#[N+]/C(C#N)=C\c1cc(C(C)(C)C)c(O)c(C(C)(C)C)c1	-22
CC/C=C\C/C=C\C/C=C\C/C=C\C/C=C\C/C=C\CCC(=O)NCC(=O)O	-3
C[n+]1cc2c3c(ccc2c2ccc4cc5c(cc4c21)OCO5)OCO3	0&-6&-5&-16
CCCn1c(=O)c(C)cn2nc(N)nc12	2
Cc1nc(Nc2ccccc2)c2nc(-c3ccccc3)n(CCCN3CCCCC3C)c2n1 (stereo not given)	-20
C=CCN1c2ccccc2[C@]23C[C@@H](C(=O)OC)N(S(=O)(=O)c4ccc([N+](=O)[O-])cc4)C2=NC(C(=O)OC)=C(C(=O)OC)[C@H]13	-4
O[C@H](CCCN1CCN(c2ncc(F)cn2)CC1)c1ccc(F)cc1	-2
CC1CC2(C)Oc3ccccc3C3OCC1(COC(=O)Nc1ccccc1)C(C)C32 (stereo not given)	-3
COc1ccc(OC)c2c(=S)c3ccccc3[nH]c12	-17
COC(=O)Nc1nc2ccc(C(=O)c3ccccc3)cc2[nH]1	0&14
C[C@H]1C2=C3C(C[C@H]4C(=O)N(c5ccccc5)C(=O)[C@H]4[C@H]3[C@@]3(Cc4ccccc4)C(=NCCc4c[nH]c5ccccc45)OC(=O)N3C2=O)[C@H]2C(=O)N(c3ccccc3)C(=O)[C@H]21 (stereo not given in full)	0
COC(=O)c1ccc(C(NC(=O)OCc2ccccc2)/C(C)=C/[C@@H](C)C(=O)N2CCN(C)CC2)cc1 (stereo not given in full)	1
C=CCNC(=O)N1CCc2nc(COc3ccccc3)c3c(c2C1)CO[C@@H](C)C3	-9
COc1ccccc1-c1oc2ccccc2c(=O)c1OC	-1
COc1ccc(C(=O)[C@]2(C)C=C(c3ccc(OC)cc3)[C@H](C)C2)cc1	0
COC(=O)C1(C)C=C2C(=C(c3ccccc3)C(=O)C2C)CN1 (stereo not given)	5

Only part of the results is shown; the hit share may differ from the screen's.
